# Screening data as filed in PubChem BioAssay.
# S aureus helic – inhibitors of S. aureus replicative helicase, primary screen, biochemical, fluorescence unwinding readout; replicative DNA helicase (DnaC/DnaB), Staphylococcus aureus; purified S. aureus helicase, fluorescence unwinding assay; about half of the hits fall short of the stated cut; inhibition, %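 (tested at about 80 µM)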; 0.05% of 120,000 active; AID 485395, 2010;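 active = both duplicates at 50% or more, or one of them with a favoured structure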;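 note: 0% = mean of negative control wells and 100% = mean of positive control wells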
# MgrA DNA FP – S. aureus MgrA activity modulators, primary screen, biochemical, S. aureus Newman, fluorescence polarization | 0.13% of 84,000 active | inhibition, %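 (about 10 µg/mL by stock and volumes)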 | MgrA-DNA binding;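 active = above 50% in either of two replicates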;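 note: 0% = protein plus DNA without compound and 100% = DNA alone without protein; higher means less MgrA bound to DNA so lower polarization; one replicate is shown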
# An asterisk follows results filed as active; . = no result given; & = joins results of further samples. Only part of the results is shown (hit frequency here may not be typical).
SMILES,S aureus helic,MgrA DNA FP
Oc1cccc(C(O)CNc2c3c(nc4cc(-c5cccc(F)c5)nn24)CCC3)c1 (stereo unspecified),-2,20
O=C(c1cc2c(Cl)ccc3c2n1CCO3)N1CCc2ccccc2C1,17,.
CSc1nc2ccccc2n1CC(=O)Nc1ccccc1,5,-1.9
c1ccc(-c2ccc(COc3ccc(-c4nnco4)cc3)cc2)cc1,-9,.
COC(=O)c1ccccc1NC(=O)C1CCCCC1C(=O)O (stereo unspecified),10,0.5
CCC(=O)OCCn1c(=O)c2cc3c(=O)n(CCOC(=O)CC)c(=O)c3cc2c1=O,-14,.
CCOc1ccc(CC(C(=O)O)C(=O)O)cc1,.,0.1
Cc1ccc(/C(C#N)=C2C=C/C(=N\O)C(Cl)=C\2Cl)cc1,.,-1.3
O=C(O)c1ccc(N=Cc2ccc(OC(=O)c3sc4ccccc4c3Cl)cc2)cc1,10,-2.9
CCn1cc(/C=N/NC(=O)Cc2ccc3c(c2)OCCO3)c2ccccc21,-14,.
Cc1cc(-c2ccc(C(=O)O)s2)c[nH]c1=O,7,.
CCCCC(CC)C1OCC(CN2CCCC2)O1 (stereo unspecified),-26,.
CCOC(=O)c1cc2sccc2n1CC(=O)OC,4,-2.0
Cn1cccc1C(=S)NC(=O)Nc1ccccc1Cl,.,-0.8
Cc1cc(C)n(-c2ccnc3cc(Cl)ccc23)n1,.,3.0
COc1ccccc1OCc1nc2ccccc2[nH]1,9,.
CC(C)C1N(C(=O)CN2CCN(C)CC2)CCCN1S(=O)(=O)c1ccccc1 (stereo unspecified),3,2.0
O=C1c2ccccc2C2(CCCC2)C(=O)N1Cc1ccccc1,.,0.2
C=CC1OCC2(CO1)C(C)C=C(C)CC2C (stereo unspecified),25,.
COc1ccccc1C1OC(=O)C[C@H]1C(=O)Oc1cccc(C(F)(F)F)c1 (stereo partly specified),.,11
CC1CCN(C(=O)Cc2noc3ccccc23)CC1,1,-2.6
COc1cccc(CNC(=O)CCCc2cccs2)c1,-4,.
CCOC(=O)c1sc(N)c(C#N)c1CSc1nnc(Nc2c(C)cccc2C)s1,-6,.
O=C(Nc1ccc2c(c1)CCC2)c1cc(=O)[nH]c2ccccc12,-21,-0.3
CC(c1ccccc1)n1cc(C(=O)NCCCN2CCCC2=O)nn1 (stereo unspecified),4,3.1
CN(C)c1ccc(/C=C(/NC(=O)c2ccccc2)C(N)=O)cc1,1,0.3
COc1ccc(O)c(C(=O)c2cc(C#N)c(=O)n(C(C)C)c2)c1,-5,.
Cc1ccc(CNCc2ccc(C(=O)O)s2)cc1,14,.
CC(C)NC(=S)N/N=C/c1ccc(N2CCOCC2)cc1,5,.
CN(/N=C/c1ccncc1)C1=NCCN1,9,-2.0
C=C/C=C(\C=C(C)C)N(C(=O)NC1CCCCC1)C1=NCCCS1,-5,24
CC(C)(C)OC(=O)NCC(=O)NNC(=S)NCc1ccccc1,.,-1.6
C=C(c1ccc(OC)cc1)c1ccc(OC)cc1,17,1.6
CCN(CC)S(=O)(=O)c1ccc(NC(=O)CSc2nnc(C)s2)cc1,5,.
Cc1ccc(S(=O)(=O)Cc2ccc(C(=O)NCc3ccc4c(c3)OCO4)o2)cc1,8,.
CCC(=O)NCCc1cc2ccc(C)cc2[nH]c1=O,-20,.
CC1=C(C(=O)N(C)Cc2ccccc2)C2(CCC(C)CC2)OC1=O (stereo unspecified),18,0.1
O=C1CCC(=O)N1CNc1cccc(Cl)c1Cl,.,-1.6
Cc1ccc(-n2c(SCC(=O)C(C)(C)C)nnc2-c2ccncc2)cc1,2,-0.6
COC(=O)C1CCCN1S(=O)(=O)c1ccccc1 (stereo unspecified),15,3.1
O=C(c1ccccc1)N1CCN(C(=S)NCc2ccc3c(c2)OCO3)CC1,-2,.
Cc1ccc(SCC(=O)NCc2cccs2)cc1,.,1.2
CCOC(=O)Cc1n[nH]c(=O)c2ccccc12,.,-0.8
O=C(CSc1c2c(nc3ccc(Cl)cc13)CCCC2)NCc1ccco1,-1,.
Cc1ccc(S(=O)(=O)c2nc(S(C)(=O)=O)sc2N2CCCCC2C)cc1 (stereo unspecified),10,.
CC(=O)N(c1ccccc1)c1nc(/C=C(\C#N)C(=O)Nc2nccs2)cs1,-9,.
O=C(CC(c1ccccc1)n1cccc1)N1CCc2ccccc21 (stereo unspecified),0,.
CC(Nc1ncnc2ccccc12)C(=O)O (stereo unspecified),2,-2.2
O=C(Nc1nccs1)c1cc2ccccc2oc1=O,1,.
CCOC(=O)N1CCN(C(=O)c2ccc(Cn3c(=O)[nH]c4cc(OC)c(OC)cc4c3=O)cc2)CC1,-12,.
# Carrying on.
SMILES,S aureus helic,MgrA DNA FP
Cc1cccc(CN2CCc3c([nH]c4ccccc34)C2)c1,.,2.1
Cn1c(=O)oc2cc(S(=O)(=O)N3CCC(C(=O)NCCc4ccccc4)CC3)ccc21,-10,.
CC(C)NC(=O)c1ccc2c(c1)N(Cc1ccccc1)C(=O)CS2,7,0.1
Cc1cc(S(=O)(=O)c2ccc(Cl)cc2)sc1C(=O)NCC(O)c1ccccc1 (stereo unspecified),.,0.7
CCOc1cc(/C=C2\SCOC2=O)ccc1O,4,2.5
O=S(=O)(Cc1ccccc1)N1CCN(c2ccccc2Cl)CC1,7,-1.6
O=C(CSc1nnnn1-c1ccc(O)cc1)Nc1ccc(C(F)(F)F)cc1,.,2.6
CC1CCCC(NC(=O)CCCn2c(=O)[nH]c3cc(Cl)ccc3c2=O)C1C (stereo unspecified),2,-5.1
Cc1cccc2sc(N(CCN(C)C)C(=O)C3COc4ccccc4O3)nc12 (stereo unspecified),-19,.
Cc1ccc(N(CN2CCCC2=O)C(=O)c2ccccc2)cc1,5,.
Cc1ccccc1OCC(=O)OCC(=O)NC1CC1,28,-0.3
CCN1CCCC1CNC(=O)c1[nH]c2cc(OC)ccc2c1Sc1ccc(Cl)cc1 (stereo unspecified),3,1.2
CCOC(=O)c1oc2c(c1C)C(=O)CCC2,4,.
CC(C[N+](C)(C)C)OC(N)=O (stereo unspecified),.,-1.1&1.4
CCCN(Cc1cccs1)C(=O)NCc1ccccc1,22,.
Cc1c(Cl)cccc1Nc1nc(N)nc(CSC(=S)N(C)C2CCCCC2)n1,0,1.6
CN(C)S(=O)(=O)c1ccc(=O)n(CC(=O)NCC2COc3ccccc3O2)c1 (stereo unspecified),-11,.
COc1cccc(/C(O)=C/c2nc3ccc(C(=O)N4CCN(C5CCCCC5)CC4)cc3[nH]c2=O)c1,-91,.
CCN1C(=O)/C(=N/n2cnnc2)c2ccccc21,-14,0.9
CN(C)C(=S)SCC(=O)Nc1ccc(Cl)c(C(F)(F)F)c1,4,0.2
O=C(CN1C(=O)NC(Cc2c[nH]c3ccccc23)C1=O)c1ccc2c(c1)OCCO2 (stereo unspecified),-21,.
O=C(Cc1ccc(Cl)cc1)Nc1cccc(-c2nc3ccccc3o2)c1,0,-0.8
Cc1cnn(CCCNC(=S)Nc2ccc(S(N)(=O)=O)cc2)c1,-9,0.8
N/C(=N\OC(=O)c1cccs1)c1ccccc1,4,-0.5
CC(=O)Oc1c(C)cccc1C(=O)O,.,-3.4
N#Cc1ccc(-c2ccon2)s1,.,-3.2
CCNC(=S)N(CCc1c(C)[nH]c2ccccc12)Cc1ccccn1,1,1.8
CCCCNC(=S)Nc1ccc2nc3n(c(=O)c2c1)CCCCC3,-1,.
CCn1c2c(n[n+]1[O-])C(=O)c1ccccc1C2=O,-35,4.1
CCc1cc(Cl)c(OC)c(C(=O)NCC2CCCN2CC)c1O (stereo unspecified),.,-0.8
O=C(Nc1ccccn1)c1cccc(C(=O)Nc2ccccn2)c1,3,2.7
O=C(Nc1nnc(-c2ccc3c(c2)CCCC3)o1)C1CCCCC1,-17,.
CC1CCCC(NC(=O)COC(=O)c2ccc(C#N)cc2)C1C (stereo unspecified),16,-2.7
CSCCSc1nnc(-c2cccc(S(=O)(=O)N3CCCCC3)c2)o1,-7,.
Cc1cc(C(=O)O/N=C(\N)CSc2ncccc2C(F)(F)F)no1,4,.
Nc1ncc(N=Nc2ccc(SC(F)F)cc2)s1,-2,.
CCn1c2ccccc2c2cc(NC(=O)C(C)C)ccc21,5,2.1
CC1CCCCC1NC(=O)CSc1ccc(S(=O)(=O)N2CCCC2)cn1 (stereo unspecified),0,.
Brc1cnc(N2CCOCC2)nc1,7,.
COc1cc(S(=O)(=O)N(Cc2cccnc2)Cc2ccco2)ccc1-n1cnnn1,8,17
CCOC(=O)c1sc2nc(CN3CCCCC3)nc(NC3CC3)c2c1C,16,.
Cc1ccnc(SCC(N)=O)c1C#N,-17,.
CC(C)(C)OC(=O)N=Nc1c(O)n(Cc2ccccc2)c2ccccc12,-23,.
O=C1CCC(=O)N1NC(=O)C12CC3CC(CC(C3)C1)C2,-10,.
COc1ccc(-n2ccsc2=S)cc1,15,.
CC1C/C(=N/N=c2\sc3ccccc3n2C)CC(C)(C)C1 (stereo unspecified),-2,.
CCOC(=O)c1ccc(N2CN(CC)CNC2=S)cc1,-22,.
Cc1cccc(N2CCN(c3nc4ccccc4n4cnnc34)CC2C)c1 (stereo unspecified),9,.
CCc1ccccc1N1C(=O)CC(N2CCc3ccccc32)C1=O (stereo unspecified),2,-1.3
O=S(=O)(NCc1nc(-c2ccccc2)no1)c1ccc(Cl)cc1,15,.
# Next part
SMILES,S aureus helic,MgrA DNA FP
COc1cc(C#N)ccc1OCC(=O)NC1CCCCC1C (stereo unspecified),7,.
NC1=NC(Cc2ccccc2)CC(=O)N1 (stereo unspecified),12,1.3
O=C(NC1CCCC1)C(c1cccnc1)N(CCc1ccccc1)C(=O)c1ccco1 (stereo unspecified),-3,-1.4
O=S1(=O)CCC(NS(=O)(=O)c2ccc(-c3ccccn3)s2)C1 (stereo unspecified),.,-1.5
CCC(C)N=C1NC(=O)C(CC(=O)NCc2ccccc2)S1 (stereo unspecified),-5,.
C=CCn1c(=O)c2c(nc3n2CC(C)CN3Cc2ccccc2)n(C)c1=O (stereo unspecified),-2,-0.2
O=C(NCc1ccccc1)C1Cc2ccccc2CN1S(=O)(=O)c1ccc(F)cc1 (stereo unspecified),7,-0.2
Cc1csc(NC(=O)C(CC(C)C)NS(=O)(=O)c2ccc3nc(C)sc3c2)n1 (stereo unspecified),-16,.
O=C(OCC(=O)N1CCc2ccccc21)c1cccc(S(=O)(=O)N2CCCCC2)c1,9,.
C=CCn1c(SCc2cc3c(cc2Cl)OCO3)nnc1-c1cccnc1,2,.
COCCOC(=O)C1=C(C)NC2=C(C(=O)CC(c3ccc(Cl)cc3)C2)C1c1ccc(O)c(OC)c1 (stereo unspecified),.,-0.9
CN(C)S(=O)(=O)c1ccc(=O)n(CC(=O)NCc2ccc(-c3ccc(Cl)cc3)o2)c1,18,.
CCN1C(=O)c2ccc(C(=O)Nc3c(C)cc(C)cc3C)cc2C1=O,18,1.6
Cc1sc2ncnc(SCC(=O)c3ccc4c(c3)OCCO4)c2c1C,12,.
CN(C)S(=O)(=O)c1ccc(N2CCOCC2)c(C(=O)NCCC2=CCCCC2)c1,11,.
C=CCNC(=S)N1CCC(C(=O)c2ccc(C)cc2)CC1,-6,19
COc1cc(N)ccc1NC(=O)c1ccco1,0,-1.2
CN(C)S(=O)(=O)c1cccc(CSc2ncccn2)c1,21,.
O=C(CC1CC2CCC1C2)Nc1ccccc1I (stereo unspecified),2,-6.4
CC(C)CCNC(=O)Cn1cccc1C(=O)c1ccccc1,15,.
O=C(Nc1ccc(N2CCOCC2)c2nonc12)c1cc(-c2cccnc2)nc2ccc(Cl)cc12,-5,5.4
NC(=O)CC1SC(=O)N=C1N (stereo unspecified),16,.
NC(=O)c1cccc(-c2nn[nH]n2)c1,-23,.
Cc1ccc(-n2cnc3cc(NC(=O)c4ccccc4)ccc32)cc1,6,1.0
CCCc1nc2ccccc2n1CC(=O)C(C)(C)C,-28,-0.6
Cc1ccc(S(=O)(=O)N(CC(=O)N2CCC(C(N)=O)CC2)c2ccccc2F)cc1,-8,2.7
Cc1ccc2nsnc2c1NC(=O)c1ccccc1,-26,.
CN(C)S(=O)(=O)NCc1ccc2c(c1)OCO2,5,.
O=C1c2ccccc2C(=O)N1CCC1=CCCCC1,8,-0.1
O=C1c2ccccc2C(=O)N1CN1CCOCC1,22,.
Cc1cc(=O)n2[nH]c(C)cc2n1,.,-2.0

# A portion of the results above, as a working copy:
SMILES,S aureus helic,MgrA DNA FP
O=C1c2ccccc2C(=O)N1CCC1=CCCCC1,8,-0.1
O=C1c2ccccc2C(=O)N1CN1CCOCC1,22,.
Cc1cc(=O)n2[nH]c(C)cc2n1,.,-2.0

# Entries above containing an NH in an aromatic ring (14):
SMILES,S aureus helic,MgrA DNA FP
Cc1cc(-c2ccc(C(=O)O)s2)c[nH]c1=O,7,.
COc1ccccc1OCc1nc2ccccc2[nH]1,9,.
O=C(Nc1ccc2c(c1)CCC2)c1cc(=O)[nH]c2ccccc12,-21,-0.3
CCC(=O)NCCc1cc2ccc(C)cc2[nH]c1=O,-20,.
CCOC(=O)Cc1n[nH]c(=O)c2ccccc12,.,-0.8
CCOC(=O)N1CCN(C(=O)c2ccc(Cn3c(=O)[nH]c4cc(OC)c(OC)cc4c3=O)cc2)CC1,-12,.
Cc1cccc(CN2CCc3c([nH]c4ccccc34)C2)c1,.,2.1
CC1CCCC(NC(=O)CCCn2c(=O)[nH]c3cc(Cl)ccc3c2=O)C1C (stereo unspecified),2,-5.1
CCN1CCCC1CNC(=O)c1[nH]c2cc(OC)ccc2c1Sc1ccc(Cl)cc1 (stereo unspecified),3,1.2
COc1cccc(/C(O)=C/c2nc3ccc(C(=O)N4CCN(C5CCCCC5)CC4)cc3[nH]c2=O)c1,-91,.
O=C(CN1C(=O)NC(Cc2c[nH]c3ccccc23)C1=O)c1ccc2c(c1)OCCO2 (stereo unspecified),-21,.
CCNC(=S)N(CCc1c(C)[nH]c2ccccc12)Cc1ccccn1,1,1.8
NC(=O)c1cccc(-c2nn[nH]n2)c1,-23,.
Cc1cc(=O)n2[nH]c(C)cc2n1,.,-2.0
